From PubChem
Hedgehog – Drosophila hedgehog isoform A inhibitors, primary screen, biochemical, plate reader, single concentration (AID 588832); 8,000 tested, under 10 active; inhibition, % at 30.3 µM; Biochemical plate reader assay, Hedgehog inhibition; active compounds read high; in the data active = inhibition from about 57%;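 note: 0% = neutral control wells and 100% = positive control wells; cholesterol-driven self-cleavage of fly hedgehog protein by fluorescence polarization; read one hour after cholesterol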
An asterisk follows results filed as active.

Hedgehog	mol
8.6	COCOc1ccc(/C=C/C(=O)c2c(O)cc(OCOC)cc2OCOC)cc1
7.1	CCN(CC)S(=O)(=O)c1ccc(NC2c3ccccc3C(=O)N2c2ccc(C)cn2)cc1 (configuration not stated)
10.7	COc1cccc(C2c3c(oc4cc(C)c(C)cc4c3=O)C(=O)N2CCCN(C)C)c1 (configuration not stated)
-1.8	O=C(Nc1nc2c(s1)COc1ccccc1-2)c1cccs1
1.8	O=C(O)c1ccc2c(c1)N(Cc1ccccc1F)C(=O)c1ccccc1S2=O (configuration not stated)
14.9	CCCSc1nnc2nc(C)cc(C)n12
8.9	COc1cccc2sc(N)nc12
-1.8	Nc1nonc1-n1nnc(C(=O)N/N=C/c2ccc(O)cc2)c1CN1CCCCCC1
5.6	CCc1ccc(CNC(=O)CCC(=O)n2ncc3cc(C)ccc32)cc1
1.9	CCC(C(=O)OC)n1cnc2c(nnn2-c2ccc(F)cc2)c1=O (configuration not stated)
11.1	CCN(CC)CCNC(=O)c1ccc(CS(=O)(=O)c2ccc(Br)cc2)o1
10.0	CCN1CCCC1CNC(=O)Cn1cc2c(n1)CCC(C)C2 (configuration not stated)
14.5	O=C(NCCSc1c[nH]c2ccccc12)c1ccco1
0.0	Cc1nc2ccc(S(=O)(=O)Nc3cccc(-c4nc5cccnc5s4)c3)cc2s1
5.3	CCC(C)NC(=O)c1ccc(CSc2nc3ccncc3n2Cc2ccc(F)cc2)cc1 (configuration not stated)
-3.6	CCOc1ccc(NC(=O)C2CCCN(S(=O)(=O)c3c(C)nn(C)c3C)C2)cc1 (configuration not stated)
12.1	COC(=O)c1cc(O)cc(OC)c1Oc1cc(C)cc(O)c1C(=O)O
8.4	COc1ccc(CNc2ccc(N3CCN(C(C)=O)CC3)cc2)cc1OC
15.0	CCCc1nc(N2CCN(C)CC2)c2sc(=S)n(-c3ccccc3)c2n1
5.3	COc1cccc(/C=C2\Oc3cc(OCC(=O)N4Cc5ccccc5C[C@H]4C(=O)O)ccc3C2=O)c1
15.0	O=C(Cn1cc2c(n1)CCCC2)NCc1cccnc1
20.8	COc1ccc2c(c1)C(SCC(=O)NCCc1ccccc1)CC(C)(C)O2 (configuration not stated)
3.6	Cc1cc2cc(CNC(=O)c3ccc(C)c([N+](=O)[O-])c3)ccc2[nH]1
5.2	COc1ccc(C(=O)NCc2ccc3c(c2)cc(C)n3C)cc1
14.1	COc1cccc(CNC(=O)c2cc3c(C)nc4ccccc4c3o2)c1
7.0	Cc1oc(-c2ccccc2F)nc1CS(=O)(=O)CC(=O)NCc1ccccc1Cl
2.8	CC(C)N1CCc2c(sc(NC(=O)c3cc(-c4cccs4)nc4ccccc34)c2C(N)=O)C1
-7.1	Cc1ccc(NC(=O)c2cc(S(=O)(=O)N3CCOCC3)cn2C)c(C)c1
1.9	CCOc1ccc(CNC(=O)c2nnc(CS(=O)(=O)c3ccccc3)o2)cc1OC
4.9	CSCC[C@H](NC(=O)N1CCn2c1nc1ccccc12)C(=O)N[C@H](Cc1ccccc1)C(=O)O
-0.1	CCOC(=O)COc1cccc2c(=O)n(CC(=O)NCc3ccc4c(c3)OCO4)ccc12
3.5	N#C[C@H]1C2OC2c2ccccc2N1C(=O)c1ccccc1 (some centres not stated)
-2.8	CN(C)c1ccc(C2N3CC4(C)CN2CC(C)(C3)C4O)cc1 (configuration not stated)
5.5	O=C(NCc1cn2ccsc2n1)c1c(F)cccc1Cl
8.6	O=c1ccc2cc3ccoc3cc2o1
7.0	CCOC(=O)N1CCC(C(=O)Nc2ccc(OCC)cc2)CC1
6.8	CSc1nc2ccccc2s1
5.1	Cc1cc(C)c(S(=O)(=O)NCCn2ccc3ccccc32)c(C)c1
5.2	CCN1CCN(CCCNC(=O)CCC(=O)N2CC(C)Oc3ccc(C)cc32)CC1 (configuration not stated)
8.7	CC1CCCC(C)N1CCCNC(=O)Cn1cc2c(n1)CCCC2 (configuration not stated)
5.4	CC(=O)c1c(O)cc(O)cc1CC(=O)O
4.4	Cc1cc2ccccc2n1CCNC(=O)Cc1cccc2ccccc12
0.9	O=S(=O)(NCC(c1cccnc1)N1CCN(c2ccccc2F)CC1)c1cccs1 (configuration not stated)
1.8	Cc1cccc(NC(=O)C2CCCN2C(=O)OCc2ccccc2)c1 (configuration not stated)
1.6	Cc1coc2cc3oc(=O)c(CCC(=O)N4C[C@H]5C[C@@H](C4)c4cccc(=O)n4C5)c(C)c3cc12

Look-ups from the results shown:
Under Hedgehog, `COC(=O)c1cc(O)cc(OC)c1Oc1cc(C)cc(O)c1C(=O)O` reads 12.1
Under Hedgehog, `CC(C)N1CCc2c(sc(NC(=O)c3cc(-c4cccs4)nc4ccccc34)c2C(N)=O)C1` reads 2.8
Under Hedgehog, `CCC(C(=O)OC)n1cnc2c(nnn2-c2ccc(F)cc2)c1=O` (configuration not stated) reads 1.9
Under Hedgehog, `O=C(NCCSc1c[nH]c2ccccc12)c1ccco1` reads 14.5
Under Hedgehog, `Cc1ccc(NC(=O)c2cc(S(=O)(=O)N3CCOCC3)cn2C)c(C)c1` reads -7.1
Under Hedgehog, `CC1CCCC(C)N1CCCNC(=O)Cn1cc2c(n1)CCCC2` (configuration not stated) reads 8.7
Under Hedgehog, `CCN(CC)S(=O)(=O)c1ccc(NC2c3ccccc3C(=O)N2c2ccc(C)cn2)cc1` (configuration not stated) reads 7.1

Among those listed so far, five contain a furan ring, fused or not.
Hedgehog	mol
11.1	CCN(CC)CCNC(=O)c1ccc(CS(=O)(=O)c2ccc(Br)cc2)o1
14.5	O=C(NCCSc1c[nH]c2ccccc12)c1ccco1
14.1	COc1cccc(CNC(=O)c2cc3c(C)nc4ccccc4c3o2)c1
8.6	O=c1ccc2cc3ccoc3cc2o1
1.6	Cc1coc2cc3oc(=O)c(CCC(=O)N4C[C@H]5C[C@@H](C4)c4cccc(=O)n4C5)c(C)c3cc12

(listing goes on)
Hedgehog	mol
3.6	Cc1cccc(N2CCN(C(=O)Cn3cccc3)CC2)c1C
2.8	Cn1c(=O)c2c(nc(CN3CCN(C(=O)c4ccco4)CC3)n2Cc2ccccc2F)n(C)c1=O
5.1	CC(C)=CCc1c(O)cc2c(=O)c3ccc(O)cc3oc2c1O
1.8	CCOc1ccc(NC2CCN(C(C)=O)CC2)cc1
12.1	O=C(O)CCCCCCCCCCCc1ccccc1
-7.7	O=C(Cn1c2c(c(-c3ccccc3)cc1=O)CCCC2)N1CCCCCC1
8.6	CC1=C(/C=C/C(C)=C/C=C/C(C)=C/CO)C(C)(C)CCC1
9.7	CCOC(=O)C1CCCN(C(=O)Cn2ncc3c(=O)oc4ccc(C)cc4c32)C1 (configuration not stated)
8.4	CCOC(=O)Cn1c(=O)oc2cc(S(=O)(=O)NC3CCCCC3)ccc21
5.2	CCOC(=O)N1CCC(N2Cc3cccc(C(=O)O)c3C2=O)CC1
16.7	COc1ccccc1-c1nc2n(n1)C(c1ccccc1Cl)C(C(N)=O)=C(C)N2 (configuration not stated)
5.1	CCn1cc(SCC(=O)NCC2CCCO2)c2ccccc21 (configuration not stated)
5.2	Cc1ccc2c(c1)C1CN(C)CCC1N2S(=O)(=O)c1ccc(Oc2ccc([N+](=O)[O-])cc2)cc1 (configuration not stated)
15.4	CCOc1ccc(NC(=O)C(C)Sc2nnc(C)n2C)cc1 (configuration not stated)
-3.5	CCc1ccccc1NC(=O)CSc1nc2ccccc2nc1N1CCOCC1
3.4	O=C(c1cc(C2CC2)on1)N1CCOCC1
-1.9	O=C(O)CC(CNS(=O)(=O)c1ccccc1)c1ccccc1 (configuration not stated)
16.7	COc1cc(NC(=O)C2=CC(c3ccc(C)cc3)=NS(=O)(=O)N2C)cc(OC)c1OC
6.4	Cc1ccc2oc3c(c(=O)c2c1)C(c1cccs1)N(CCCN(C)C)C3=O (configuration not stated)
8.6	O=C1CN(C(=O)c2ccc(Br)o2)C(c2ccccc2)c2cc(F)ccc2N1 (configuration not stated)
0.0	C[C@H]([C@@H](O)[C@@H](O)[C@@H](C)C(C)(C)C)[C@H]1CC[C@H]2C3CC[C@H]4C[C@H](OS(=O)(=O)O)[C@@H](OS(=O)(=O)O)C[C@]4(C)[C@H]3CC[C@]12C (some centres not stated)
0.9	Cc1nc2sc(C(c3cccs3)N3CCN(c4ccccc4)CC3)c(O)n2n1 (configuration not stated)
-2.8	CCOC(=O)N1CCN(C(=O)CS(=O)(=O)c2cn(Cc3ccccc3Cl)c3ccccc23)CC1
3.5	CCOc1ccccc1NC(=O)C1CCN(c2nc(-c3ccc(OC)cc3)no2)CC1
2.2	CC(=O)c1ccc(NC(=O)CSc2nnc(Cn3c(=O)sc4ccccc43)n2C)cc1
10.5	CCn1cc(C2N3CC4(C)CN2CC(C)(C3)C4=O)c2ccccc21 (configuration not stated)
7.0	CC(C)C[C@@H](C(=O)NCC1CCCO1)N1C(=O)N2CCc3c([nH]c4ccccc34)[C@@]2(C)C1=O (some centres not stated)
10.5	COc1ccc(-c2cc3c(=O)n(CC(=O)NCc4ccc(Cl)cc4)ncn3n2)cc1
5.4	CCCc1cc(=O)oc2c(C)c(OCC(=O)N3CCC(C(N)=O)CC3)ccc12
0.1	Cc1cc(NC(=O)c2cc(C3CC3)on2)no1
5.2	Cc1c(C(=O)NCC2CCCO2)sc2nc(-c3ccc(F)cc3)cn12 (configuration not stated)
14.9	CCN(CC)c1ccc(NC(=O)CCc2nnc3ccc(N4CCCC4)nn23)c(C)c1
8.3	O=C(NC1CCCC1)c1ccc(CS(=O)(=O)c2ccc(Br)cc2)o1
20.0	CCOc1ccc(N(CC(=O)O)S(=O)(=O)c2cccnc2)cc1
6.9	O=c1c2cc(O)c(O)cc2oc2cc(O)c(C3OC(CO)C(O)C(O)C3O)c(O)c12 (configuration not stated)
1.9	Cc1cccc(NC(=O)c2cnc3ccccn3c2=O)c1
8.2	O=C(COc1ccc2ccc(=O)oc2c1)NC(Cc1ccc(Cl)cc1)C(=O)O (configuration not stated)
4.9	O=c1c(O)c(-c2ccccc2)oc2ccccc12
19.1	O=C(NCCSc1c[nH]c2ccccc12)c1ccc(Br)o1
8.2	CC1(C)C=Cc2c(c3c(c4c(=O)c(-c5ccc(O)cc5)coc24)OC(C)(C)CC3)O1
-5.4	COC(=O)c1ccc(N=c2sc(C(=O)OC)cc(=O)n2C)cc1
9.7	COc1ccc(-c2cn3c(C)c(C(=O)Nc4ccncc4)sc3n2)cc1
0.0	COc1ccc(-n2c(Cn3c(=O)sc4ccccc43)nnc2SCC(=O)N2CCOCC2)cc1
12.5	Cc1c(C(=O)O)cccc1[N+](=O)[O-]
25.0	CC(c1ccc(Br)cc1)N1CC23C=CC(O2)C(C(=O)O)C3C1=O (configuration not stated)
0.0	Cc1ccc(NC(=O)CS(=O)Cc2nc(-c3ccc(C)cc3)oc2C)cc1 (configuration not stated)
8.2	O=c1c(OC2OC(CO)C(O)C(O)C2OC2OC(CO)C(O)C(O)C2OC2OC(CO)C(O)C(O)C2O)c(-c2ccc(O)c(O)c2)oc2cc(O)cc(O)c12 (configuration not stated)
5.0	O=C(Cn1nc(Cc2cccnc2)c2ccccc2c1=O)N1CCN(c2ccccn2)CC1
32.7	CC1OC(Oc2c(-c3cc(O)c(O)c(O)c3)oc3cc(O)cc(O)c3c2=O)C(O)C(O)C1O (configuration not stated)
3.5	Cc1ccc(O)c(NC(=O)C2=CC(c3cccs3)=NS(=O)(=O)N2C)c1
1.7	CCCc1cc(C(=O)NCc2ccccc2)no1
6.9	CSCC[C@H](NC(=O)OC(C)(C)C)C(=O)N1CCC(C(=O)N[C@@H](C)C(=O)NC(C)c2ccccc2)CC1 (some centres not stated)
9.5	CCOC(=O)Cn1c(CN2CCN(C(c3ccccc3)c3ccccc3)CC2)nc2c1c(=O)n(C)c(=O)n2C
3.5	CCCCN(C)CCNC(=O)Cn1ncc2c(=O)oc3ccc(C)cc3c21
8.6	CC(Oc1cc2oc(=O)cc(-c3ccccc3)c2cc1Cl)C(=O)NCC1CCC(C(=O)O)CC1 (configuration not stated)
1.7	O=C(CSc1nc2c(cnn2-c2ccc(F)cc2)c(=O)[nH]1)N1N=C(c2cccs2)CC1c1ccc(F)cc1 (configuration not stated)
12.5	CCN1CCN(CCCNC(=O)c2ccc3c(c2)NC(=O)c2ccccc2S3)CC1
1.7	Cc1cccc2c1cnn2C(=O)CCC(=O)NC1CCCCC1
5.2	Cc1cc(NC(=O)c2cc(CC(C)C)on2)no1
5.4	COc1ccc(N(CC(=O)Nc2cc(OC)ccc2OC)S(=O)(=O)c2c(C)nn(C)c2C)cc1

Next compounds follow:
Hedgehog	mol
20.0	COc1cc(NS(=O)(=O)c2ccc3c(c2)oc(=O)n3C)cc(OC)c1OC
0.9	O=C(CSc1c[nH]c2ccccc12)N1CCCc2ccccc21
6.9	COCC1OC(OC(C)C(O)c2cnc3nc(N)[nH]c(=O)c3n2)C(O)C(OC)C1O (configuration not stated)
1.8	Cn1cc(S(=O)(=O)N2CCCC2)cc1C(=O)N1CCN(c2cccc(Cl)c2)CC1
9.6	Cc1cccn2cc(CCNS(=O)(=O)c3ccc([N+](=O)[O-])cc3)nc12
5.1	C=CCn1c(C(C)NC(=O)COC)nc2ccccc21 (configuration not stated)
1.8	Cc1cc(NC(=O)CSc2nc(-c3ccccc3)nc3c2c(=O)n(C)c(=O)n3C)no1
0.9	CCn1c(CCNC(=O)c2ccc(F)cc2)nc2ccccc21
0.0	CCOC(=O)N1CCN(C(=O)c2noc(C(C)C)c2[N+](=O)[O-])CC1
7.3	COc1cccc(NC(=O)CSc2nc3ccccc3nc2N2CCOCC2)c1
5.2	CCn1c(CNC(=O)C(C)(C)C)nc2ccccc21
4.5	CCN1CCN(c2c(C(=O)c3ccc(OC)cc3)cnc3ccccc23)CC1
15.0	COc1ccc(-n2c(Cn3c(=O)sc4ccccc43)nnc2SCC(N)=O)cc1
4.9	CC(CCC(=O)O)C1CCC2C3CC(O)C4CC(O)CC[C@]4(C)C3CCC12C (some centres not stated)
20.0	CC(=O)c1ccc(NC(=O)CSc2nnc(Cc3cccn3C)n2-c2ccc(F)cc2)cc1
5.3	COc1ccc(NC(=O)CSc2nc3ccccc3nc2N2CCCC2)cc1
5.4	O=C(Cn1cnc2c(nnn2-c2cccc(Cl)c2)c1=O)N1CCOCC1
5.1	CCc1nn(CC(=O)N2CCN(C)CC2)c(=O)c2cccn12
3.5	CC(C)N(Cc1nc(-c2ccccc2)no1)C(=O)c1ccc(Cl)cc1
-4.5	CCc1nnc(NC(=O)CSc2nnc(Cc3cc(=O)[nH]c(=O)[nH]3)n2-c2ccc(OC)cc2)s1

Only part of the results is shown; the hit share may differ from the screen's.
